Assay outcomes (PubChem)
Six1-Eya2 inh = blocks human Six1 binding to Eya2 | Q15475+O00167 | AlphaScreen GST-Six1/His-Eya2 binding, biochemical; hits give low values; control for the full effect not named in the record | AID 651725 | 360,000 compounds, 0.56% hits | activity change, % (test concentration not listed); in the data active = activity change below about -65%; inconclusive = about -30% to -65%; inactive = above about -30%; also: % is scaled to controls: 0 for no effect and ±100 for the full control effect
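Homogeneous AlphaScreen proximity assay pairing GST-Six1 with His-tagged Eya2 (added as 5X mix: 250 nM and 500 nM) in 50 mM Tris pH 8.0, 300 mM NaCl, 1 mM TCEP. Glutathione donor and nickel acceptor beads; 1 h, 37 °C, dark.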
gsp antagonist = gsp mutant antagonism; gsp-mutant cells, cAMP HTRF, 30 min; control for the full effect not named in the record; Potency, µM (top dose mostly 76.9 µM), for inactives: top-dose activity change, negative = inhibition, most hits filed as inhibitors; 340,000 compounds, 0.4% hits; active = falling curve of any shape with a large fitted effect; inconclusive = falling curve, mostly with a smaller effect; inactive = flat or rising curve; cell line not stated here;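 also: intracellular cAMP measured with PDE inhibitor Ro 20-1724 present during compound exposure; potency is read from the fitted curve at half-maximal effect; % is scaled to controls: 0 for no effect and ±100 for the full control effect; nearly all actives have a fitted effect of over 65% in size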
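Measurement of cellular cAMP by homogeneous time-resolved fluorescence following a 30 min compound exposure at 37C. The PDE inhibitor […] was present throughout; the assay buffer was DPBS with 0.05% BSA and 0.005% Tween 20.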
CtBP-E1A inh = CtBP/E1A binding inhibition. AlphaScreen GST-E1A/His-CtBP binding, 1536-well; hits give low values; control for the full effect not named in the record. activity change, % (concentration not given with the values). 340,000 compounds, 0.49% hits. AID 651724; in the data active means activity change below about -65%; inconclusive means about -30% to -65%; inactive means above about -30%; also: % is scaled to controls: 0 for no effect and ±100 for the full control effect
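Homogeneous bead-based format: GST-tagged E1A captured on glutathione donor beads, His-tagged CtBP on nickel acceptor beads; compounds precede bead addition by 2 h at 37 °C.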
D2 agonist = activates the human D2 dopamine receptor; 360,000 compounds, 0.084% hits; DiscoveRx PathHunter D2 beta-arrestin, luminescence, 90 min; 100% = 57 uM dopamine signal; P14416; activation, % (concentration not given with the values); AID 624465; in the data active = activation above about 40%; inconclusive = about 15% to 40%; inactive = below about 15%; also: the text of the record calls up to 30% inactive
Target sequence (P14416 whole entry, looked up): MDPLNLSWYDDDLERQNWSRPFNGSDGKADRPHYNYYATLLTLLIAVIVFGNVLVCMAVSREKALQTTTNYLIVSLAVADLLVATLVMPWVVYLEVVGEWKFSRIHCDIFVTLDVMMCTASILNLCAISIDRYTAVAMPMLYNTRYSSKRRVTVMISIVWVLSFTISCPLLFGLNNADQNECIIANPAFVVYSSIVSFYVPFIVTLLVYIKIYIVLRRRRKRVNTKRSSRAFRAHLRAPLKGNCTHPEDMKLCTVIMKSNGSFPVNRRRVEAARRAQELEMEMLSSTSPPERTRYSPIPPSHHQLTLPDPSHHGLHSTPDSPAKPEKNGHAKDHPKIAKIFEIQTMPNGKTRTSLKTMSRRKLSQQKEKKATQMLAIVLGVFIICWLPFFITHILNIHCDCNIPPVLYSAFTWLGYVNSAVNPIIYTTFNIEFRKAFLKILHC
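Agonist mode: compounds alone added to overnight-plated D2 PathHunter cells for 90 min at 37 C, with 57 uM final dopamine (EC100) defining full response. Beta-arrestin recruitment detected by chemiluminescent reagent, read after 1 h at ambient temperature.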
gsp agonist = gsp mutant agonism | AID 624287 | 340,000 compounds, 0.13% hits | gsp mutant cells, cAMP HTRF, 30 min; control for the full effect not named in the record | Potency, µM (top dose mostly 76.9 µM), without a hit: at the top dose activation (cAMP increase), hits mostly activators; active = well fitted activation curve with a large enough effect; inconclusive = small, poorly fitted or top-dose-only effect, or another doubt; inactive = no such curve, though single readings can be large or run the other way; cell line not stated here;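 also: phosphodiesterase inhibitor Ro 20-1724 added with compounds to block cAMP breakdown; potency is read from the fitted curve at half-maximal effect; nearly all actives have a fitted effect of over 60% in size; about a fifth of the inactives were tested at one dose only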
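Cells in DMEM/10% FBS with G418 were pretreated with compounds in DMSO plus […] (300 uM stock) for 30 min at 37C. cAMP was measured by HTRF (cAMP-d2 plus anti-cAMP antibody-K) after 30 min at room temperature.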
D2 PAM = human D2 receptor positive allosteric modulation; potentiation, % (test concentration not listed); DiscoveRx D2 beta-arrestin cells, luminescence, 90 min; 100% = 57 uM dopamine signal; 360,000 compounds, 0.23% hits; active = potentiation of 50% or more; inconclusive = 30% to 50%; inactive = 30% or less;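 also: compound concentration not given in the record; tested on top of an EC20 dose of dopamine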
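PathHunter beta-arrestin assay in DiscoveRx D2 cells. Compounds were added with an EC20 of dopamine (50 nM final) for 90 min at 37 deg C. Luminescence was read 1 h after detection reagent, with 57 uM dopamine as the EC100 control.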
* hit, by the source's call; u = inconclusive; x = not tested or not shown; & = joins results of further samples; [ ] = remark or other dose.

SMILES	Six1-Eya2 inh	gsp antagonist	CtBP-E1A inh	D2 agonist	gsp agonist	D2 PAM
Cc1cc(C)cc(NC(=O)CSc2nnc(Cc3cccn3C)n2-c2ccc(F)cc2)c1	-15	-13%	-5	2.3	12%	-11
CC(C)COc1ccc(C(=S)N2CCCC2)cc1	-1	-9%	5	3.2	-3%[15.4 µM]	-3
COc1cc(C(CCN2CCCC2)c2c(OC)cc(OC)c3c(-c4ccccc4)cc(=O)oc23)cc(OC)c1OC (centres undefined)	-1	8%	-9	-4.2	1%	-17
CC1CN(C(=O)C(Sc2ccccc2)c2ccccc2)CC(C)O1 (centres undefined)	-4	-3%	-9	-0.2	20%	-3
CC1CCC2C(=O)N(c3cc(Cl)ccc3OC(=O)c3ccco3)C(=O)C2C1 (centres undefined)	-1	5%	-26	-3.1	-14%[15.4 µM]	-1
Nn1c(SCC(=O)N2CCOCC2)nnc1C1CC1	5	16%	1	-4.6	-18%[15.4 µM]	-7
CCOC(=O)c1[nH]c(C)c(C(=O)OCC(=O)N(C)C2CCS(=O)(=O)C2)c1C (centres undefined)	-1	x	0	1.0	-2%[15.4 µM]	-3
Nc1cc(N)nc(SCC(=O)N2CCN(C(=O)c3ccco3)CC2)n1	3	12%	0	-1.0	18%	4
C=Cc1cc2c(cc1O)CCC1C2CCC2(C)C(O)CCC12 (centres undefined)	2	14%	-6	2.9	-9%	-6
COC(=O)CSc1nsc(SCC(=O)OC)c1C#N	-8	-20%	-11	-1.1	0%	4
O=C(NCC1CCCO1)c1cn(Cc2ccccc2)nc1-c1ccc(Cl)cc1 (centres undefined)	18	-18%	x	3.3	-29%	0
COc1ccc(-n2c(Cc3cccn3C)nnc2SCC(=O)Nc2ccccc2C)cc1	-4	-19%	-7	-1.5	-27%	-2
CC(=O)NCCc1cc2cc(C)c(C)cc2[nH]c1=O	4	-1%	4	-1.6	-28%	13
Cc1cc(C)n(CCNC(=O)[C@H]2O[C@@H](n3ccc(=O)[nH]c3=O)[C@H](O)[C@@H]2O)n1	13	x	-17	5.5	x	-5
Cc1cc(N2CCN(C)CC2)nc2ccc(NC(=O)c3cccnc3Cl)cc12	11	20%	15	-4.2	-42%[inhibitor]	-9
O=C(c1cc(S(=O)(=O)N2CCOCC2)ccc1Cl)N1CCC(Cc2ccccc2)CC1	13	-4%	0	-3.9	-14%	-17
S=C(NCc1ccccn1)Nc1ccccc1Cl	6	12%	10	-0.8	-3%	-17
COC(=O)c1cc(-c2ccccc2)n(CCN)c1C	-5	11%	-8	-2.1	-30%	-18
COc1ccccc1CCC(=O)Nc1cc(S(=O)(=O)N2CCOCC2)ccc1N1CCCC1	-10	-16%	-1	-3.3	28%[15.4 µM]	-12
O=C1Nc2ccccc2N(O)N1c1cc(-c2cccc(Cl)c2)no1	2	-16%	-6	-2.5	-14%	-8
Cn1nnnc1SCc1cn2cccnc2n1	1	8%	3	-1.3	u	-11
O=C1CC(SCc2nc3ccccc3[nH]2)C(=O)N1c1ccc(F)c(Cl)c1 (centres undefined)	-26	0%	-28	-2.4	-1%	-36
COc1cc2ccccc2cc1C(=O)Nc1cc(C)ccn1	1	-4%	-4	-4.4	-5%	-2
Cc1ccc(NC(=O)COc2ccccc2C=O)cc1Cl	1	-1%	7	-2.2	3%[15.4 µM]	-8
CCC/C=C1/CCCOC(C(=O)NCc2ccccc2)(C(F)(F)F)C1 (centres undefined)	17	-7%	1	-1.7	x	-25
COC(=O)c1c(C)oc2ccc(OC(=O)c3cccs3)cc12	21	13%	27	-5.0	-34%[inhibitor]	-3
CCN(Cc1ccncc1)Cc1cn[nH]c1-c1cc(OC)c(OC)c(OC)c1	1	9%	-10	-1.5	7%	-1
COc1cc(NC(=S)Nc2ccc(N(C)C(C)=O)cc2)cc(OC)c1	-4	x	16	0.2	-1%[15.4 µM]	-16
CCNc1nnc(SCC(=O)c2cc(C)n(C3CC3)c2C)s1	-1	-3%	2	2.9	-7%	19
COc1ccc(-c2oc3ccc(-c4cc(OC)c(OC)c(OC)c4)cc3c2-c2ccc(OC)nc2)cc1	-16	-6%	-8	-2.6	12%	-6
O=C(OCc1nnc(-c2ccc(Br)cc2)o1)c1cncc(Br)c1	3	-7%	-6	-4.5	4%[15.4 µM]	-3
COC(=O)Cn1c(CN2CCN(C(=O)c3ccco3)CC2)nc2c1c(=O)n(C)c(=O)n2C	-21	-5%	u	-0.2	u	-6
CCOC(=O)N1CCN(C(=O)CN2C(=O)NC(C)(c3ccc4ccccc4c3)C2=O)CC1 (centres undefined)	10	-8%	x	-0.3	0%	8
N#Cc1cccc(NC(=O)COC(=O)c2cc(S(=O)(=O)Nc3ccccc3Cl)ccc2O)c1	u	u	1	-1.7	6%[15.4 µM]	-46
CCCC1=NN(c2ccc([N+](=O)[O-])cc2)C(=O)/C1=C/N(C)C	3	3%	2	-3.8	-10%	4
NC(=NCCc1c[nH]c2ccccc12)NC(=O)c1ccc(F)cc1	-12	-11%	0	2.0	11%[15.4 µM]	-21
COc1ccc(C)cc1-n1ccn(CC(=O)Nc2ccc(Br)cc2F)c(=O)c1=O	8	-3%	-5	-5.3	8%[15.4 µM]	-9
Oc1ccc(Cl)cc1CNn1cnnc1	0	0%	25	-5.2	18%[15.4 µM]	2
CCC(=O)c1ccc(OCC(=O)NC2CCN(Cc3ccccc3)CC2)cc1	5	13%	4	-2.3	u	-3
CC(=O)NC1(C(F)(F)F)C(=O)Nc2c1c(=O)[nH]c(=O)n2CC(C)C (centres undefined)	8	7%	9	-0.9	5%	-2
Cc1cccc(CSC2=NN3CCCC(=O)N=C3S2)c1	4	-8%	8	-4.4	-10%	-4
CN(CC(=O)Nc1ccc(Cl)cc1)CC(=O)Nc1ccc(F)c(F)c1F	5	-3%	-6	-4.0	15%[15.4 µM]	0
COc1cccc(OCC(O)CN2CCN(c3ccc(Cl)cc3)CC2)c1 (centres undefined)	10	-1%	x	-3.8	-2%	-26
CC(Nc1cccc(C(=O)NC2CC2)c1)c1nnc(-c2ccccc2)o1 (centres undefined)	0	-6%	0	-2.3	u	-3
CCCNC(=O)/C(=C/c1cn(S(=O)(=O)N(C)C)c2ccccc12)NC(=O)c1ccc(OC)cc1	-1	-16%	-6	1.8	2%	-15
CCN(CC)c1ccc(NC(=O)CCS(=O)(=O)c2ccc(Br)cc2)c(C)c1	u	-15%	-2	-0.3	2%	-11
c1ccc2c(N3CCOCC3)nc(N3CCOCC3)nc2c1	8	0%	1	-3.3	-4%	-3
C=C(C)CSc1nnc(-c2ccc(OC)cc2)n1N	1	11%	9	-3.1	-12%	-1
NNC(=O)Cn1nc2n(c1=O)-c1ccccc1SC2	9	-9%	4	-5.6	3%[15.4 µM]	-2
O=C(CCCn1c(SCc2cccc([N+](=O)[O-])c2)nc2ccccc2c1=O)NCC1CCCO1 (centres undefined)	-8	-15%	-14	1.0	20%	6
O=S(=O)(c1cccc(C(F)(F)F)c1)N(CCCN1CCOCC1)Cc1cccs1	-1&-10	8%&7%	7&3	-3.1&-8.1	1%	-15&-4
CCOc1ccc(S(=O)(=O)NCCC(=O)N2CCN(Cc3ccccc3)CC2)cc1	0	6%	3	-0.4	-3%[15.4 µM]	-2
CCOC(=O)c1ccccc1NC(=O)CN(c1ccccc1C)S(C)(=O)=O	-3	-24%	-3	1.1	u	-22
Cc1cc(Cl)nc(Cl)c1C(=O)N1CCOCC1	1	7%	-14	0.9	5%[15.4 µM]	-5
CC(CCc1ccccc1)NS(=O)(=O)c1ccccc1 (centres undefined)	5	-5%	15	1.2	-1%	0
CC(Nc1cccnc1)=C(C#N)C#N	-1	3%	5	0.4	-5%	-6
CN(Cc1ccc(Cl)s1)C(=O)CCl	28	-1%	-9	-0.3	1%[15.4 µM]	-16
Cc1cc(=O)oc2cc(OCC(=O)Nc3nnc(C(C)C)s3)ccc12	-2	-5%	5	-1.6	u	12
Nc1ccc(CNC(=O)OCC2c3ccccc3-c3ccccc32)cc1	-5	-8%	-6	-1.0	x	-36
N#Cc1ccc(C(=O)CSc2n[nH]c(=O)n2Cc2ccco2)cc1	0	-1%	0	0.8	2%[15.4 µM]	-15

Additional records:
SMILES	Six1-Eya2 inh	gsp antagonist	CtBP-E1A inh	D2 agonist	gsp agonist	D2 PAM
Cc1ccc(NC(=O)CCn2cccc2)cc1Cl	-10	4%	-7	-0.6	-12%	-14
CCCCNC(=O)C1(C)CCCCN1Cc1ccc2ccccc2c1 (centres undefined)	12	x	10	-6.9	x	-10
Cc1ccc(-n2ncc3c2CC(C)(C)CC3NC(=O)Cc2c(C)noc2C)cc1 (centres undefined)	-1	-10%	0	-4.5	9%[15.4 µM]	-6
CC(C)C(NS(=O)(=O)/C=C/c1ccccc1)C(=O)NCc1ccc(F)cc1 (centres undefined)	1	4%	-4	-5.5	-4%	-10
COC(=O)C(NC(=O)c1ccccc1)(Nc1nc(C)cs1)C(F)(F)F (centres undefined)	-6	-10%	0	-2.9	-2%	-2
Oc1ccc(/C=N/Nc2ccc(C(F)(F)F)cn2)cc1O	-6	12%	-14	0.5	-5%[15.4 µM]	9
CC(=O)Nc1ccc2c(c1)nc1n2CCN(C(C)c2ccccc2)C1 (centres undefined)	-12	-12%	-21	1.3	23%	-34
O=C(c1ccccc1)c1ccc(OCC(=O)N2CCOCC2)cc1	7	8%	11	-4.2	-1%	-4
O=C(N/N=C/c1cccnc1)c1cccc(S(=O)(=O)N2CCCC2)c1	-7	-5%	6	-1.1	12%	1
CCOc1ccsc1C(=O)OC	-16	7%	-9	1.1	-14%[15.4 µM]	-22
O=C(O)C(c1ccccc1)C(O)c1ccc2c(c1)OCO2 (centres undefined)	2	-10%	3	2.9	10%	2
COc1ccccc1C(=O)c1cc2ccc(O)cc2oc1=O	3	-12%	x	4.4	-28%	6
Cc1ccccc1-n1c(Cc2cccs2)n[nH]c1=S	-8	5%	-10	1.0	-17%	-15
CCc1ccc(OCc2ccc(C(=O)NCc3ccccn3)o2)cc1	3	4%	-2	-0.9	-3%	-5
CC1=CN2C(=N)/C(=C\c3cn(CCCOc4ccccc4)c4ccccc34)C(=O)N=C2S1	1	2%	-11	-1.7	17%	-4
Oc1ccccc1C=NC(c1ccccc1)C(O)c1ccccc1 (centres undefined)	2	-15%	2	1.0	u	-10

Profiles as entered above. Values in the order: Six1-Eya2 inh, gsp antagonist, CtBP-E1A inh, D2 agonist, gsp agonist, D2 PAM
Cc1ccccc1-n1c(Cc2cccs2)n[nH]c1=S is listed as -8, 5%, -10, 1.0, -17%, -15
Oc1ccccc1C=NC(c1ccccc1)C(O)c1ccccc1 (centres undefined) is listed as 2, -15%, 2, 1.0, u, -10
CC(C)C(NS(=O)(=O)/C=C/c1ccccc1)C(=O)NCc1ccc(F)cc1 (centres undefined) is listed as 1, 4%, -4, -5.5, -4%, -10
CCCCNC(=O)C1(C)CCCCN1Cc1ccc2ccccc2c1 (centres undefined) is listed as 12, x, 10, -6.9, x, -10
